LASV entry inh: Lassa virus entry inhibition; Lassa virus pseudotype entry inhibition, cell reporter; control for the full effect not named in the record; 300,000 compounds, 1.2% hits; Potency, µM (doses to about 37.9 µM), for inactives: top-dose activity change, negative = inhibition, hits mostly inhibitors; active means well fitted inhibition curve with a large enough effect; inconclusive means small, poorly fitted or top-dose-only effect, or effect the other way; inactive means flat fitted curve, though single readings scatter; tested in HEK293 cells; note: % is set by controls: 0 for no effect and ±100 for the full control effect; nearly all actives have a fitted effect of over 50% in size; luciferase read-out
SARS PLpro yeast: blocks SARS-CoV papain-like protease in a yeast assay. S. cerevisiae expressing SARS-CoV PLpro, growth rescue; control for the full effect not named in the record. Potency, µM (series often up to 32.9 µM), inactives show at the top dose activity, positive = growth rescue. 330,000 compounds, 0.19% hits. AID 485353; active means well fitted rising curve with a large enough effect; inconclusive means small, poorly fitted or top-dose-only effect; inactive means no such curve, though single readings can be large or run the other way; note: 0% is about no effect; nearly all actives have a fitted effect of over 55% in size; growth read by luminescence after 48 h
Marburg entry inh: inhibitors of Marburg virus binding or cell entry; 300,000 compounds, 1.8% hits; Marburg virus pseudotyped entry inhibition, cell reporter; control for the full effect not named in the record; about a third of the inactives were read at about 46 µM; Potency, µM (series often up to 37.8 µM), without a hit: at the highest dose activity change, negative = inhibition, usual class: inhibitors; AID 540276; active = well fitted inhibition curve with a large enough effect; inconclusive = small, poorly fitted or top-dose-only effect, or effect the other way; inactive = flat fitted curve, though single readings scatter; tested in HEK293 cells; about a fifth of its hits are not listed in these tables; note: % is set by controls: 0 for no effect and ±100 for the full control effect; luciferase read-out
2A StopGo: lowers the luciferase signal of an FMDV 2A StopGo reporter; human cells with a luciferase reporter of 2A StopGo recoding; control for the full effect not named in the record; Potency, µM (titrated, usually from 57.9 µM), inactives show top-dose signal change, negative = less light; 410,000 compounds, 1.2% hits; AID 1159524; active = well fitted falling curve with a large enough effect; inconclusive = small, poorly fitted or top-dose-only effect; inactive = no such curve, though single readings can be large or run the other way; tested in HEK293T cells; note: % is set by controls: 0 for no effect and ±100 for the full control effect; nearly all actives have a fitted effect of over 45% in size; luciferase light after 4 h
NS1 inh: influenza NS1 inhibition | S. cerevisiae slowed by influenza A NS1, growth recovery by OD600 | Potency, µM (series often up to 46.1 µM), for inactives: top-dose activity, positive = more growth | 270,000 compounds, 0.4% hits | AID 2326; active means well fitted rising curve with a large enough effect; inconclusive means small, poorly fitted or top-dose-only effect; inactive means no such curve, though single readings can be large or run the other way; note: nearly all actives have a fitted effect of over 50% in size
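In this qHTS, NS1 from influenza A is expressed in budding yeast, where it slows growth. Cells are switched from glucose to 2% galactose medium (pH 6.0, -URA), treated with compound, and growth recovery is read at OD600.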
RE007 growth inh: less growth of the S. pombe RE007 Vpr strain | S. pombe RE007 Vpr strain, BacTiter-Glo ATP luminescence, 24 h; control for the full effect not named in the record | Potency, µM (doses to about 92.2 µM), for inactives: top-dose activity change, negative = less growth | 360,000 compounds, 0.21% hits | AID 651644; active = well fitted falling curve with a large enough effect; inconclusive = small, poorly fitted or top-dose-only effect; inactive = no such curve, though single readings can be large or run the other way;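 note: % is set by controls: 0 for no effect and ±100 for the full control effect; nearly all actives have a fitted effect of over 50% in size; the assay follows cell death caused by Vpr and the record does not say whether a fall means rescue or toxicity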
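Fission yeast RE007 carrying one integrated HIV-1 vpr copy, seeded at OD 0.01 in PMG+AL medium with 23 nL pinned compound. Grown 24 h at 30 degrees; viability read by BacTiter-Glo luminescence after 5 min.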
Cruzain inh Det: cruzain (T. cruzi) inhibition with detergent; P25779; purified cruzain, Z-FR-AMC fluorescence, 0.01% Triton; Potency, µM, for the others: max response, negative = inhibition, most hits filed as inhibitors; 200,000 compounds, 0.43% hits; AID 1478;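 note: plate controls were neutral wells for no effect and buffer without enzyme for full effect; nearly all actives have a fitted effect of over 40% in size; top concentration of the series not given in the record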
Target sequence (P25779 123-467 limits assumed): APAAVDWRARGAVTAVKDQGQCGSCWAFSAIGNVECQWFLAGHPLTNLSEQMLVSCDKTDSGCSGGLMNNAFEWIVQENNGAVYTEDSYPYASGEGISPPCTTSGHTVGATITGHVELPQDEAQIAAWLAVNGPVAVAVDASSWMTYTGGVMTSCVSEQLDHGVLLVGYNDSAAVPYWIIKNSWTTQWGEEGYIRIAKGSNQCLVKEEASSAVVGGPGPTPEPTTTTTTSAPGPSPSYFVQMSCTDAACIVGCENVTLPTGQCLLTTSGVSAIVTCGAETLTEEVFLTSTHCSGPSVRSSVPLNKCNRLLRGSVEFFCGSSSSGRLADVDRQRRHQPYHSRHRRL
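15 min RT preincubation of 1.5 nM cruzain with compound, then 2 uM Z-FR-AMC added; kinetic AMC fluorescence, 60 s delta. Triton X-100 0.01%, pH 5.5.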
Cruzain inh noDet: cruzain (T. cruzi) inhibition without detergent | 200,000 compounds, 2.3% hits | Potency, µM, inactives show max response, negative = inhibition, most hits filed as inhibitors | purified cruzain, Z-FR-AMC fluorescence, no detergent | P25779;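 note: plate controls were enzyme without inhibitor for no effect and buffer without enzyme for full effect; nearly all actives have a fitted effect of over 40% in size; top concentration of the series not given in the record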
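Detergent-free condition (0.00005% Triton X-100) in acetate buffer pH 5.5 with DTT. 1.5 nM enzyme and compound were pre-mixed 15 min, then 2 uM Z-FR-AMC substrate added; reaction progress from fluorescence change between first and third reads (60 s).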
Starred values were filed as active, the others as inactive; ? = inconclusive; . = no result given; & = joins results of further samples; [ ] = remark or other dose. Unless noted, calls come from the whole dose curve; as a rule, active = well fitted curve in the direction sought with a large enough effect; inconclusive = small, poorly fitted or top-dose-only effect, or another doubt; inactive = no such curve, though single readings can be large; an effect the other way counts as inactive or inconclusive. Potency is the fitted concentration of half-maximal effect.

SMILES | LASV entry inh | SARS PLpro yeast | Marburg entry inh | 2A StopGo | NS1 inh | RE007 growth inh | Cruzain inh Det | Cruzain inh noDet
CC(C)N=C(Nc1ccccc1)c1cccnc1 | 16% | -5% | 25% | -3% | 9% | -9% | 3.2% | -5%
CCOC(=O)c1c(N)sc2c1CCN(CCc1ccccc1)C2 | . | 2% | . | -7% | 11% | -14% | . | .
O=C1Nc2ccccc2Oc2cc(Oc3cccc(Cl)c3)ccc21 | -3%[46.1 µM] | . | -19%[46.1 µM] | -11% | . | . | -2.6% | ?
CCc1c(C)nc2ncnn2c1N1CCCC(C(=O)Nc2ccc(NC(C)=O)cc2)C1 (stereo not given) | 22% | -2% | 25% | -12% | 4% | -15% | 2.6% | -13%
COc1ccccc1/C=C(/C(=O)OCC(=O)Nc1ccccc1C(C)C)c1ccccc1 | . | -20% | -4% | -12% | -2% | 6% | -7.7% | -2%
Cc1c(NC(=O)Nc2ccccc2)cccc1[N+](=O)[O-] | ? | -12% | ? | 20% | 0% | 3% | -4.9% | 2%
COc1ccc(Cl)cc1NC(=O)Nc1ccc(C(=O)N2CCCC2)cc1 | -7%[46.1 µM] | -10% | ? | ? | 8% | 5% | . | .
COc1cccc(-c2cc(C(F)(F)F)n3ncc(C(=O)O)c3n2)c1 | 4% | -6% | -3% | -2% | 6% | 11% | -10% | 0%
OC(COC(c1ccc(F)cc1)c1ccc(F)cc1)CN1CCCC1 (stereo not given) | . | 0% | . | -23% | -8% | 3% | . | .
O=C(COc1ccccc1F)Nc1ccc(N2CCOCC2)cc1N1CCOCC1 | 11% | 6% | 4%[46.1 µM] | 9% | . | -4% | . | .
Cc1ccc(C(=O)n2cnnc2N)cc1 | -2% | -3% | 0% | 6% | -16% | -18% | 5.2% | -2%
O=[N+]([O-])c1cccc(N2Cc3ccccc3C2)c1 | 5% | 0% | 1% | 58%[activator] | 2% | -29% | . | .
CCOC(=O)C1(Cc2cccc(F)c2)CCN(Cc2cnn(CC)c2C)CC1 | ? | 0% | ? | -21% | 2% | -17% | . | .
COc1ccccc1NC(=O)COc1ccc(/C=N/NC(=O)CSCc2ccc(Cl)cc2)cc1 | 5% | 1% | ? | 18µM* | 6% | -19% | 2.6% | -12%
Cc1cccc(C)c1NC(=O)CN(C)C(=O)c1ccccc1Cc1ccccc1 | -18%[46.1 µM] | 4% | -19% | -2% | . | -2% | . | .
Cc1ccccc1NP(=O)(Oc1ccccc1F)Oc1ccccc1F | 18% | -1% | -13% | -4% | -19% | -2% | -11% | 5%
COc1ccc(Cl)cc1NC(=O)NCc1ccccn1 | 13%[46.1 µM] | -7% | ? | -5% | -1% | 6% | . | .
Cc1cccc(C(=O)N(Cc2nc3ccccc3c(=O)[nH]2)C2CCCCC2)c1 | -27% | 0% | -21%[46.1 µM] | -18% | -5% | 1% | . | .
N#Cc1cc2ccccc2nc1SCC(=O)Nc1ccc(S(=O)(=O)N2CCCC2)cc1 | -22%[14.3 µM] | 1% | ? | -18% | ? | -3% | -4.5% | ?
CCOc1ccc(-c2nnc(SCC(=O)NCc3ccccc3)nc2-c2ccc(OCC)c(OC)c2)cc1OC | ? | . | . | -16% | . | . | 0.3% | 1%
CCc1cc(C)cc(OCCNC(=O)c2ncn[nH]2)c1 | 2% | -2% | 15% | . | 0% | 5% | 4.1% | 4%
Cc1ccc(F)cc1NC(=O)CCC(=O)c1cccs1 | -18% | -5% | 25%[46.1 µM] | 7% | -11% | -5% | 5.8% | -3%
O=C(/C=C/c1ccco1)N1CCN(c2ccc(F)cc2)CC1 | -3%[46.1 µM] | 0% | 4%[46.1 µM] | 7% | -34% | 3% | . | .
COc1cc(NC(=O)Cn2cnc3c(nc4n3CCCCC4)c2=O)cc(OC)c1OC | -2%[46.1 µM] | -5% | -2%[46.1 µM] | -9% | -5% | -12% | . | .
CCc1ccc(C(=O)c2cn(CC(=O)NCCc3ccccc3)c3nc(C)ccc3c2=O)cc1 | 19%[46.1 µM] | . | . | -5% | . | . | 0.4% | -12%
CCOc1ccc(CCNC(=O)c2csc3c2CCCCC3)cc1 | . | . | -1%[46.1 µM] | -16% | . | . | -2.9% | 4%
Cc1cccc(N(CC(=O)NCc2ccco2)C(=O)CCC(=O)Nc2nccs2)c1C | 6%[46.1 µM] | -2% | ? | -10% | -6% | 6% | . | .
CCc1ccc(NC(=O)c2ccc3c(c2)c(C)c(C)n3Cc2ccccc2)cc1 | 2%[46.1 µM] | . | . | 15% | . | . | 1.7% | 13µM*
Nc1ccc(S(=O)(=O)NC2=NCCCCC2)cc1 | -2% | 0% | -2%[46.1 µM] | 1% | -1% | 3% | . | .
Cc1cc(C)n(-c2ccc(C(=O)OCC(=O)Nc3ccc(S(N)(=O)=O)cc3)cc2)n1 | 4% | -23% | 15% | -11% | . | -8% | . | .
Cc1nc2sc(C)c(C)n2c(=O)c1S(=O)(=O)NCCc1ccc(Cl)cc1 | 1%[46.1 µM] | . | . | 7% | . | . | -0.1% | -1%
O=C1c2oc3ccc(F)cc3c(=O)c2C(c2ccccc2)N1CC1CCCO1 (stereo not given) | -2% | 9% | 1% | -10% | -20% | -2% | 6.8% | -3%
Cc1cc(=O)n2[nH]c(CCC(=O)O)nc2n1 | -7% | 0% | 9%[46.1 µM] | 3% | 1% | -6% | . | .
CC1CCc2cc(F)ccc2N1C(=O)CSc1nnc2c(n1)[nH]c1ccc(F)cc12 (stereo not given) | ? | 4% | ? | . | ? | -10% | 11% | -7%
Cc1cc(C)cc(NC(=O)C2CCCN2S(=O)(=O)c2ccc3c(c2)n(C)c(=O)c(=O)n3C)c1 (stereo not given) | . | 5% | . | -12% | 15% | -4% | . | .
COc1cc(OC)c(C2C3=C(CCCC3=O)Nc3nc4ccccc4n32)cc1OC (stereo not given) | -14% | 0% | -6% | -16% | 2% | -2% | -14% | ?
CCN1CCN(C(c2ccc(SC)cc2)c2c(O)cc(C)n(Cc3ccco3)c2=O)CC1 (stereo not given) | -2%[46.1 µM] | . | . | -16% | . | . | 0.6% | ?
Clc1ccc(CN2CCCCCC2)cc1 | 10% | -6% | 0% | -21% | 9% | -11% | . | .
CCOc1ccc(/C=C(/NC(=O)c2ccc(Cl)cc2)C(=O)O)cc1OCC | -6%[46.1 µM] | 0% | 9%[46.1 µM] | 6% | 5% | -9% | . | .
O=C(NCc1cccc(F)c1)C1CCCN(C(=O)N2CCOc3ccccc32)C1 (stereo not given) | ? | . | . | -6% | . | . | -4.0% | -1%
Cc1ccccc1NC(NC(=O)c1cccnc1)C(Cl)(Cl)Cl (stereo not given) | 0% | 20% | -7% | -1% | 2% | -2% | -3.2% | 7%
CCc1ccc(S(=O)(=O)Nc2ccc(-c3ccc(N4CCCC4)nn3)cc2)cc1 | -3%[46.1 µM] | . | . | 22% | . | . | -1.8% | 6%
COc1ccc(NC(=O)N2CCC(c3nc(-c4cccs4)no3)CC2)cc1 | 2% | -19% | 10% | 8% | -57% | 1% | -1.9% | -10%
O=[N+]([O-])c1ccc(Cl)c(CN2CCSCC2)c1 | ? | -12% | 1% | -19% | 2% | -1% | -1.3% | -9%
Cc1onc(-c2ccccc2)c1C(=O)NCC(=O)Nc1cc(Cl)ccc1Cl | ? | -2% | ? | -25% | . | -3% | . | .
CN(CC(=O)Nc1ccc(N2CCOCC2)cc1)C(=O)c1cn(-c2ccccc2)nc1-c1ccccc1 | 18%[46.1 µM] | 0% | 3% | 6% | . | 22% | . | .
CCN(CC)C(=O)Cn1cc(/C=C(\C#N)C(=O)NC2CC2)c2ccccc21 | . | 0% | . | 6% | 27% | 4% | . | .
CC(=O)c1cccc(NC(=O)CCCCCn2nnc3ccccc3c2=O)c1 | 17% | -1% | -37% | -21% | -1% | 12% | . | .
COc1cccc(-c2cc3nc(-c4ccccc4)cc(=O)n3[nH]2)c1 | -2%[46.1 µM] | -1% | . | -3% | 6% | -11% | . | .
CCCN(CCC)S(=O)(=O)c1ccc(C(=O)N2CCC(=O)c3ccccc32)cc1 | ? | 3% | -24% | -26% | -38% | 1% | 1.9% | -8%
CCOC(=O)c1c(C)noc1-c1ccco1 | 8% | -1% | 16%&16% | -14% | -5% | 12% | . | .
O=C(CCCn1c(=O)oc2ccccc21)N1CCN(c2ccccn2)CC1 | . | -2% | 12%[46.1 µM] | 0% | -4% | -1% | . | .
O=C(Cn1cc([N+](=O)[O-])cn1)Nc1ccccn1 | 4% | 6% | 7% | . | 2% | -16% | 4.8% | -3%
CC(=O)Nc1ccc([N+](=O)[O-])c(CS(=O)(=O)c2ccc(C)cc2)c1[N+](=O)[O-] | -21% | 10% | 5%[46.1 µM] | -16% | 8% | -9% | . | .
COc1ccccc1CCNC(=O)c1cnccn1 | -1% | 11% | 5% | 26% | -14% | 3% | 0.7% | 2%
CCc1ccc(NC(=O)c2ccc(C3SCC(=O)N3CCc3ccccc3)cc2)cc1 (stereo not given) | -22% | 0% | -3% | ? | 17% | 2% | 3.7% | ?
CCOc1ccccc1C(=O)NC(C(=O)Nc1cccc(S(N)(=O)=O)c1)C(C)C (stereo not given) | -10% | -2% | -11% | -17% | . | -13% | . | .
CCc1cccc2c(=O)c(C(=O)NCCN3CCOCC3)c[nH]c12 | -8% | -1% | 8% | 3% | -5% | -4% | -2.7% | -15%
COc1ccc(-c2cc(C)no2)cc1S(=O)(=O)N(C)c1ccc(C)cc1 | . | -2% | . | -16% | -1% | 6% | . | .
COc1ccc(N(C)C(=O)Cn2c(=O)oc3ccccc32)c(OC)c1 | ? | 0% | ? | -18% | -2% | -10% | . | .

Compound activity deposited in PubChem BioAssay by National Center for Advancing Translational Sciences (NCATS).
